# Bioassay records from PubChem BioAssay.
# D2 PAM – potentiates the human D2 dopamine receptor allosterically. hit rate 0.23% among 360,000. potentiation, % (concentration not given with the values). DiscoveRx D2 beta-arrestin cells, luminescence, 90 min; 100% = 57 uM dopamine signal; active = potentiation of 50% or more; inconclusive = 30% to 50%; inactive = 30% or less;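 further: compound concentration not given in the record; tested on top of an EC20 dose of dopamine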
#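 D2 cells co-treated with compound plus 50 nM dopamine (EC20) for 90 min at 37 deg C to detect potentiation. Beta-arrestin recruitment was read as enzyme-fragment luminescence after 1 h at ambient temperature. Full response was set by 57 uM dopamine.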
# gsp antag – antagonists of gsp mutant (McCune-Albright syndrome) | hit rate 0.4% among 340,000 | Potency, µM (titrated, usually from 76.9 µM), inactives show at the top dose activity change, negative = inhibition, usual class: inhibitors | gsp-mutant cells, cAMP HTRF, 30 min; control for the full effect not named in the record; active = falling curve of any shape with a large fitted effect; inconclusive = falling curve, mostly with a smaller effect; inactive = flat or rising curve; cell line not stated here;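 further: intracellular cAMP measured with PDE inhibitor Ro 20-1724 present during compound exposure; potency means the concentration at half of the fitted maximal effect; on the % scale 0 is the no-effect control and ±100 the full control effect; nearly all actives have a fitted effect of over 65% in size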
#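 Cells in G418 medium, seeded 16-24 h, 37C; buffer exchange to DPBS + 1 mM CaCl2, 0.5 mM MgCl2, 0.05% BSA; cpds in DMSO + […] (300 uM stock), 30 min 37C; HTRF cAMP detection.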
# TRPV1 potentiator – potentiators of human vanilloid receptor 1 (TRPV1); Q8NER1; TRPV1-expressing cells, Fluo-8 calcium influx, capsaicin EC20 potentiation; host cell line not named in the record; control for the full effect not named in the record; potentiation, % at 8.33 µM; hit rate 0.02% among 320,000; AID 540277; active means potentiation above 80%; inconclusive means 30% to 80%; inactive means below 30%; further: 0% is about no effect
# Target sequence (Q8NER1 whole entry, looked up): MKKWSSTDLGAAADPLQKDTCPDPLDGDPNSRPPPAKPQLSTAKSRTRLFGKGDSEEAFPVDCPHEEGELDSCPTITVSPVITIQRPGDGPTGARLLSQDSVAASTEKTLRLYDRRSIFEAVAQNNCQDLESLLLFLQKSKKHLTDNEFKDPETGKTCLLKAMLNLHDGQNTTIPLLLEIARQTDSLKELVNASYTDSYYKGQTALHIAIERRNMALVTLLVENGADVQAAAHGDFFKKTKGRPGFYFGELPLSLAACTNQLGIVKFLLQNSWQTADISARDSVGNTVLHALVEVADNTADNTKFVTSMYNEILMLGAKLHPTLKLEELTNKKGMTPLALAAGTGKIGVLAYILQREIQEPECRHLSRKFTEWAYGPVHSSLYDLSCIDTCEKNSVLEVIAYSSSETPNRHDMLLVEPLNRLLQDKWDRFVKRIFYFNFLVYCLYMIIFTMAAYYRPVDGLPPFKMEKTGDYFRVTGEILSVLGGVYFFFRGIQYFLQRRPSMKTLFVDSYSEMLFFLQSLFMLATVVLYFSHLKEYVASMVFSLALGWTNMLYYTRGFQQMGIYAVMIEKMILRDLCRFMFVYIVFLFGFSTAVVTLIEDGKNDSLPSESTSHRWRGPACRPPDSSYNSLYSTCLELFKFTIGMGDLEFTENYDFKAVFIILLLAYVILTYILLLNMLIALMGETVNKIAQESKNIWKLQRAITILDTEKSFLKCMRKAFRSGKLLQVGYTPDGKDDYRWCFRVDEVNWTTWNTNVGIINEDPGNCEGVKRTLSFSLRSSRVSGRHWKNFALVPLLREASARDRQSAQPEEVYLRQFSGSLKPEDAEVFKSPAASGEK
#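 Cells expressing TRPV1 were dye-loaded with Fluo-8 and read kinetically: 10 s baseline, 3 min after compound (agonist portion), then 2 min after EC20 capsaicin (allosteric enhancer portion). Calcium-bound dye fluorescence at 480/520 nm.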
# gsp agonist – agonists of gsp mutant (McCune-Albright syndrome); gsp mutant cells, cAMP HTRF, 30 min; control for the full effect not named in the record; Potency, µM (titrated, usually from 76.9 µM), without a hit: at the top dose activation (cAMP increase), hits mostly activators; hit rate 0.13% among 340,000; AID 624287; active = well fitted activation curve with a large enough effect; inconclusive = small, poorly fitted or top-dose-only effect, or another doubt; inactive = no such curve, though single readings can be large or run the other way; cell line not stated here;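 further: phosphodiesterase inhibitor Ro 20-1724 added with compounds to block cAMP breakdown; potency means the concentration at half of the fitted maximal effect; nearly all actives have a fitted effect of over 60% in size; about a fifth of the inactives were tested at one dose only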
#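 Cells in DMEM/10% FBS with G418 were pretreated with compounds in DMSO plus […] (300 uM stock) for 30 min at 37C. cAMP was measured by HTRF (cAMP-d2 plus anti-cAMP antibody-K) after 30 min at room temperature.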
# Menin-MLL FL inh – menin-MLL binding inhibition, fluorescein peptide. FP activity change, % at 61.4 µM. 290,000 tested, under 10 active. Fluorescence polarization, fluorescein-MLL peptide displacement from menin; inconclusive = falling polarisation curve, or a change in total fluorescence; inactive = total fluorescence flat and polarisation flat or rising; no compound was filed as active; the % refers to the polarisation; negative = inhibition;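 further: % of control where 0% means no effect; inhibitors lower the polarisation; unlabelled MLL peptide was the positive control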
# Sfp PPTase inh – Sfp phosphopantetheinyl transferase inhibition; Potency, µM, for inactives: max response, negative = inhibition, usual class: inhibitors; hit rate 3.5% among 310,000; Biochemical Sfp PPTase activity, qHTS; Q9F4F7; AID 1490; active means well fitted inhibition curve with a large enough effect; inconclusive means small, poorly fitted or top-dose-only effect, or another doubt; inactive means no such curve, though single readings can be large or run the other way;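 further: the enzyme is Sfp with the accession as filed and its product quenches rhodamine fluorescence; potency means the concentration at half of the fitted maximal effect; 0% = enzyme reaction without inhibitor and -100% = no enzyme wells; top concentration of the series not given in the record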
#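 Buffer: 50 mM Hepes-Na pH 7.6, 10 mM MgCl2, 0.01% Nonidet P-40, 0.01% BSA. Enzyme 15 nM, pre-exposed to compound 15 min; substrates then added and fluorescence change tracked over 30 min.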
# ClpP mod – qHTS Assay for Activators of ClpP | purified B. subtilis ClpP, FRET peptide cleavage, 20 min | Potency, µM (series often up to 57.5 µM), without a hit: at the top dose activity change, negative = active | hit rate 1.9% among 340,000 | AID 651965, 2013; active = well fitted falling curve with a large enough effect; inconclusive = small, poorly fitted or top-dose-only effect; inactive = no such curve, though single readings can be large or run the other way; further: potency means the concentration at half of the fitted maximal effect; the source files actives as falling curves though it sought activators and does not explain the sign; nearly all actives have a fitted effect of over 65% in size; many hits overshoot -100%
# Target sequence (P80244 whole entry, looked up): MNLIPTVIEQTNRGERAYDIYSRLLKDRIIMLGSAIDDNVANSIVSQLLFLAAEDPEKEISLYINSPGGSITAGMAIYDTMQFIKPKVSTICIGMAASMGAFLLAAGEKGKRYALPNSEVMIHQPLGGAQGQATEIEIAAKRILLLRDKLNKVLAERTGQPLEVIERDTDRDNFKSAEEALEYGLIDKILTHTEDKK
#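 Purified B. subtilis ClpP, 10 microg/mL final in Tris/HCl pH8 with KCl, BSA, glycerol and Tween-20, cleaved an Abz/nitrotyrosine-quenched decapeptide. Fluorescence (ex 320, em 430) was read at 0 and 20 min at room temperature. Delta was normalized to 5.8 microM ADEP and DMSO/no-enzyme controls.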
# Starred values were filed as active, the others as inactive; ? = inconclusive; nt = not tested or not shown; & = joins results of further samples; [ ] = remark or other dose. The order is random; any-hit rate near 5.1%.
mol	ClpP mod	D2 PAM	gsp antag	gsp agonist	Menin-MLL FL inh	Sfp PPTase inh	TRPV1 potentiator
COc1ccccc1CN(Cc1nc2ccccc2c(=O)[nH]1)C(=O)Nc1cccc(C)c1	-0.7%	-5	-13%	?	4.0	4%	15
O=C(NCc1ccc(Cl)cc1)c1ccccc1CCc1ccccc1	-1.5%	-12	-12%	-1%	1.6	9%	-3
COc1ccc2c(c1)C(=C(C#N)C#N)C(=O)N2CCc1ccccc1	nt	-11	-7%	-4%[15.4 µM]	10	?	-5
CCC(C)(C)NC(=O)CN(Cc1cccs1)C(=O)CNS(=O)(=O)c1ccc(F)cc1	1.7%	-8	18%	-21%	-2.9	5%	0
CCOc1ccc(C(=O)c2cc([N+](=O)[O-])ccc2N2CCOCC2)cc1	-20%	-2	6%	?	-0.3	-6%	-10
CO/N=C/c1ccc(N2CCN(C(=O)c3ccc(F)cc3)CC2)c([N+](=O)[O-])c1	-1.0%	7	35µM*	25%	0.5	?	-19
COc1ccccc1S(=O)(=O)Cc1ccc(C(=O)NCC2CCCO2)o1 (stereo unspecified)	0.2%	-2	8%	-20%	43[activator]	3%	2
CN(C)S(=O)(=O)c1ccc2c(c1)nc(CCC(=O)Nc1ccc3c(c1)OCO3)n2C	-6.7%	1	-11%	17%	7.6	-10%	-9

# An excerpt from above in order of the Menin-MLL FL inh value, highest first.
compound | Menin-MLL FL inh
COc1ccc2c(c1)C(=C(C#N)C#N)C(=O)N2CCc1ccccc1 | 10
COc1ccccc1CN(Cc1nc2ccccc2c(=O)[nH]1)C(=O)Nc1cccc(C)c1 | 4.0
O=C(NCc1ccc(Cl)cc1)c1ccccc1CCc1ccccc1 | 1.6
CO/N=C/c1ccc(N2CCN(C(=O)c3ccc(F)cc3)CC2)c([N+](=O)[O-])c1 | 0.5
CCOc1ccc(C(=O)c2cc([N+](=O)[O-])ccc2N2CCOCC2)cc1 | -0.3

# Next part:
mol	ClpP mod	D2 PAM	gsp antag	gsp agonist	Menin-MLL FL inh	Sfp PPTase inh	TRPV1 potentiator
O=C(O)c1ccccc1OCCOc1ccccc1C(=O)O	0.0%	10	2%	-1%	3.0	12%	7
Cn1c(=O)c2c(nc(N3CCNCC3)n2Cc2cccc3ccccc23)n(C)c1=O	-0.3%	-39	-13%	1%	0.7	-5%	-5
COc1ccc(-c2noc(-c3ccc(C)cc3)n2)cc1	-12%	-1	7%	1%	2.4	2%	8
CCC(NC(=O)COc1ccc([N+](=O)[O-])cc1)c1ccccc1 (stereo unspecified)	nt	nt	nt	nt	-0.7	21%	-11
Cc1ccc(NC(=O)CN(C)C(=O)c2ccc(Sc3nncn3C)c([N+](=O)[O-])c2)cc1	-1.0%	-2	3%	27%	nt	nt	-3
COC(=O)Cc1cc(OC)c(OC)cc1S(=O)(=O)N(C)C	nt	2	3%	4%[15.4 µM]	-1.9	0%	3
O=C(O)CCN1Cc2ccccc2C1=O	-0.3%	4	5%	13%	-0.8	11%	-2
COc1ccc(NC(=O)CCN2CCN(S(=O)(=O)c3cc(Cl)ccc3OC)CC2)cc1	?	1	7%	?	-1.0	3%	?
O=C(C1CCN(S(=O)(=O)c2ccc(Cl)cc2)CC1)N1CCOCC1	-1.0%	-9	4%	?	4.2	-30%	-6
Cc1ccc(CN2CCC(Oc3cccc(C(=O)NCc4cccnc4)c3)CC2)o1	-1.0%	-20	-24%	-33%	nt	-10%	-3
Cc1ccc(N2CC(C(=O)NC3CCCCCC3)CC2=O)cc1 (stereo unspecified)	3.3%	-11	nt	?	nt	nt	nt
COc1ccc(/C(C)=N/N2CCOCC2)c(O)c1	0.8%	2	7%	-18%	8.0	9%	3
O=C(c1ccc(N2C(=O)CCC2=O)cc1)N1CCN(c2ccccc2)CC1	-4.1%	1	-4%	-1%	-5.8	5%	4
CSc1ncc(C(=O)Nc2cccc(Cl)c2C)c(C)n1	nt	-3	2%	7%	12	9%	-18
Cc1nn(C)cc1/C=N/O	-0.5%	-6	-2%	-10%	-0.3	4%	-4
CCCCC(=O)Nc1ccccc1N1CCN(c2ccccc2)CC1	1.1%	-12	-5%	-5%	-3.3	-5%	-13
NC(=O)c1ncc(C(F)(F)F)cc1Oc1ccc(C(F)(F)F)cc1	-1.1%	-8	4%	8%	-1.8	3%	8
Cc1nn(C)cc1/C=N/NC(=O)c1ccc2c(c1)OCO2	-2.3%	-3	7%	-11%	0.1	8%	-8
CN1CCCCc2c1nc1ccccc1c2N (tested in a mixture with another compound)	-15%	-12	6%	-3%	6.2	10%	7
CCOc1cc(CN2CCN(c3cccc(C(F)(F)F)c3)CC2)ccc1OC	-1.4%	-18	-5%	-36%[inhibitor]	1.9	-27%	11
COc1ccc(OC)c(S(=O)(=O)NC(C)CCc2ccccc2)c1 (stereo unspecified)	0.4%	-3	-9%	?	-1.2	19%	-21
O=C(OCc1ccccc1Cl)c1cc([N+](=O)[O-])ccc1N1CCOCC1	1.3%	3	-12%	-48%[inhibitor]	nt	nt	nt
CCOc1ccc(S(=O)(=O)NCc2ccc(Cl)cc2)c2cccnc12	16µM*	4	-10%	-27%	1.5	1%	9
CCCNC(=O)c1nc2ncc(Br)cn2n1	8.4%	-9	0%	15%	4.0	0%	14
O=C(COC(=O)CC12CC3CC(CC(C3)C1)C2)Nc1cccnc1Cl	nt	-9	-4%	1%[15.4 µM]	3.6	1%	-13
CCOP(=O)(OCC)c1nc(-c2cccc([N+](=O)[O-])c2)oc1N1CCCCC1	-2.7%	-13	-4%	-1%	1.9	8%	-37
Clc1ccc(C2=C3CCCCn4c(-c5ccccc5)c[n+](c43)C2)cc1	10µM*	-6	-9%	4%	?	79µM*	8
COc1ccc(NC(=S)Nc2ccc(S(N)(=O)=O)cc2)c(OC)c1	nt	-5	nt	17%[15.4 µM]	-3.1	-14%	-4
CN1CCN(c2ccccc2/C=N/NC(=O)c2cccnc2)CC1	0.3%	-13	11%	?	-0.9	-30%	-3
Cc1ccc(C(=O)NC2CCN(CC(=O)NCc3cccs3)CC2)cc1	nt	-8	5%	6%[15.4 µM]	-0.3	6%	-2
O=C(Nc1ccc(S(=O)(=O)Nc2ncccn2)cc1)c1ccccc1	0.1%	-8	1%	-2%	-1.7	32%[activator]	-39
O=C(Nc1nnc(S(=O)(=O)N2CCCCC2)s1)c1ccccc1Br	-3.2%&-4.2%	4	-12%	?	2.4	22%	5
COc1ccc(/C=C2\CCCC(C(=O)C(F)(F)F)=C2O)cc1OC	nt	nt	nt	nt	-2.2	-13%	4
CNc1nc(C)c(C(C)(C)C)s1	-0.2%	-11	16%	-31%[inhibitor]	1.9	-19%	10
CC(C)(C)c1ccc(C(=O)OCC(=O)Nc2cccc(S(=O)(=O)NC3=NCCC3)c2)cc1	-2.1%	-21	nt	-16%	nt	nt	nt
O=C(c1ccc(-n2cccc2)cc1)N1CCN(Cc2ccccc2)CC1	-1.6%	-32	2%	?	3.0	8%	-22
COc1cccc(OCC(O)CNC2CCCC2)c1 (stereo unspecified)	-3.0%	-8	13%	-4%	6.9	-3%	17
Cc1ccc(C(=O)NC(=S)Nc2cccc(NC(=O)c3ccccc3Cl)c2)cc1[N+](=O)[O-]	-4.8%	-21	6%	-28%	3.3	4%	7
Cc1ccc2nc(SCC(=O)Nc3nonc3C)[nH]c2c1	nt	-4	-18%	-20%[15.4 µM]	-5.9	8%	15
CC(/C=N/NC(=O)c1n[nH]c2c1CCC2)=C\c1ccccc1	-2.5%	-3	5%	26%	2.9	7%	-4
COc1ccc(NS(=O)(=O)c2cccc(C(=O)N/N=C/c3ccc4c(c3)OCCO4)c2)cc1	nt	-6	-4%	1%	1.2	16µM*	-2
COc1ccc(CNC(=O)CCCn2c(=O)c3cccn3c3cccnc32)cc1	4.4%&3.5%	-3	nt	-44%[inhibitor]	nt	nt	nt
O=C(CN1CCN(c2ccc(O)cc2)CC1)N1CCc2ccccc21	-6.1%	-4	-2%	37%[15.4 µM]	-2.7	40µM*	2
CCCCNC(=O)CSc1nnc(Cc2ccccc2)n1CC	-0.4%	-13	10%	?	-2.3	27%	10
CCOC(=O)c1cc2c(ccn2C)n1CC(=O)N1CCN(c2ccccc2OC)CC1	nt	nt	nt	nt	0.4	-7%	4
COc1cccc(C2CC(c3ccccc3OC)n3ncnc3N2)c1 (stereo unspecified)	0.9%	-2	-13%	-29%	1.9	1%	nt
COc1cc2c(C(=O)N(C)c3ccc(F)cc3)cn(C)c(=O)c2cc1OC	-1.2%	-6	11%	-25%[15.4 µM]	2.0	9%	-1
CN(C(=O)COC(=O)c1ccc[nH]c1=O)C1CCCCC1	?	-2	3%	-60%[inhibitor]	-0.4	8%	-3
CCOC(=O)N1CCC(NC(=O)CCc2cn(C)c3ccccc23)CC1	-27%	5	2%	-1%	1.4	28%	-31
CCOn1c(=O)c(-c2cc(OC)ccc2OC)[n+]([O-])c2ccccc21	1.2%	2	11%	-14%	-6.4	15%	3
CCCn1cnc2c(c1=O)c1nc3ccccc3nc1n2Cc1ccccc1OC	nt	nt	nt	nt	-1.0	8%	7
CC1(C)C(=O)C2(CCCC2)C(=O)OC1c1ccco1 (stereo unspecified)	-0.5%	-21	9%	15%	2.3	-13%	-22
CC(C)NC(=S)NCc1cccnc1	-0.8%	12	8%	-7%	2.7	9%	3
Cc1nn(-c2cccc(Cl)c2)c2nc(-c3ccncc3)cc(C(=O)N3CCOCC3)c12	0.2%	-10	?	1%[15.4 µM]	4.7	?	-9
